Mtb growth: Mycobacterium tuberculosis H37Rv growth inhibition, putative kinase inhibitor library, confirmatory dose response (AID 2842). M. tuberculosis H37Rv growth inhibition; higher % means a stronger effect; some inactives read as strong as hits. actives 5.2% (n = 24,000). inhibition, % at 10 µg/mL, or IC90 in µg/mL where a hit was titrated;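 active = confirmed in a dose series; about a fifth of its hits are not listed in these tables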;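 note: bacteria incubated one week before Alamar blue readout; 0% = bacteria only wells and 100% = bacteria with high antibiotic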
An asterisk follows results filed as active. The list is partial; rates above refer to the full screens.

Results for CCCc1cc(=O)[nH]c2nnc(SCc3ccc(Cl)c(Cl)c3)n12 ?
Mtb growth: -9%

How did NC(=O)CSc1ccc2nnc(-c3cccc(F)c3)n2n1 do in these assays?
Mtb growth: 1%

What do the screens show for `COC(=O)c1c(NC(=O)c2ccc(S(=O)(=O)N3CCCC3)cc2)sc2c1CCN(Cc1ccccc1)C2`?
Mtb growth: -19%

What do the screens show for `CCC(Sc1nc(NC(C)=O)c(NC(=O)c2cccs2)c(=O)[nH]1)C(=O)O` (stereo not drawn)?
Mtb growth: -12%

What do the screens show for `CCOc1cccc2sc(N(CCCn3ccnc3)C(=O)Cc3ccc(F)cc3)nc12`?
Mtb growth: 4.8µg/mL*

How did O=C(Nc1nnc(SCc2cccnc2)s1)C1CC(=O)N(c2ccccc2)C1 (stereo not drawn) do in these assays?
Mtb growth: -1%

What do the screens show for `Cc1ccc(-c2nc(C(N)=O)c3[nH]c(=O)n(-c4ccc(C(C)(C)C)cc4)c3n2)cc1`?
Mtb growth: 5%

Results for Cc1cc(NC(=O)c2cccc(C(F)(F)F)c2)nc2c1c(=O)oc1ccccc12 ?
Mtb growth: -5%

Results for Cn1c(=O)[nH]c(=O)c2c1nc(SCC(O)CO)n2Cc1ccccc1 (stereo not drawn) ?
Mtb growth: 2%

How did O=[N+]([O-])c1cc(S(=O)(=O)N2CCOCC2)ccc1N1CCCCC1 do in these assays?
Mtb growth: -1%

Results for Nn1c(SCC(=O)Nc2cccc(C(F)(F)F)c2)nnc(CCC(=O)O)c1=O ?
Mtb growth: -17%

Results for CCOC(=O)c1nn(-c2ccccc2)c(=O)c2c(NC(=O)c3cc(OCC)c(OCC)c(OCC)c3)scc12 ?
Mtb growth: -8%

How did CCOc1ccccc1C(=O)NCCc1cc2ccc(C)cc2[nH]c1=O do in these assays?
Mtb growth: -2%

Results for CC1Cc2nc(SCC(=O)Nc3ccc(OC(F)(F)F)cc3)n(C)c(=O)c2S1 (stereo not drawn) ?
Mtb growth: 12%

What do the screens show for `CCOC(=O)c1nn(-c2ccc(C(F)(F)F)cc2)c(=O)c2c(NC(=O)C3CCCC3)scc12`?
Mtb growth: -11%

What do the screens show for `O=C1NC(=O)/C(=C\c2ccc3noc(-c4ccccc4)c3c2)S1`?
Mtb growth: 88%

How did Cn1c(=O)n(CCCO)c(=O)c2c1nc1n(-c3ccccc3F)c(-c3ccccc3)cn21 do in these assays?
Mtb growth: -2%

Results for COc1ccc(S(=O)(=O)c2cn(Cc3cccc(F)c3)c3ccc(F)cc3c2=O)cc1 ?
Mtb growth: 8%

What do the screens show for `O=C(Cn1cnc2sc(-c3ccccc3)cc2c1=O)NN=Cc1ccccc1O`?
Mtb growth: -10%

Results for Cn1c(=O)[nH]c(=O)c2c1nc(SCc1c(F)cccc1Cl)n2Cc1ccccc1 ?
Mtb growth: 5%

Results for COc1cccc(-c2csc(NC(=O)c3ccc4c(c3)OCCO4)n2)c1 ?
Mtb growth: 14µg/mL*

How did CCc1nnc(NS(=O)(=O)c2ccc(-n3c(C)cn4c5c(=O)[nH]c(=O)n(C)c5nc34)cc2)s1 do in these assays?
Mtb growth: 1%

What do the screens show for `CC(C)Oc1ccc(C(=O)Nc2sc3c(c2C#N)CCN(C(C)C)C3)cc1`?
Mtb growth: 2%

Results for CCOc1ccc(C(=O)NCCSc2ncc(-c3ccccc3)[nH]2)cc1 ?
Mtb growth: -5%

Results for C=CCNc1nc2c(c(=O)n(C)c(=O)n2C)n1CC(=C)C ?
Mtb growth: -2%

Results for Cc1cc2nc(NC(=O)c3ccc(S(C)(=O)=O)cc3)sc2cc1C ?
Mtb growth: 7%

Results for O=c1cnnc(N/N=C/c2ccccc2O)[nH]1 ?
Mtb growth: 0.46µg/mL*

Results for Cc1cn2c3c(=O)[nH]c(=O)n(C)c3nc2n1CCN1CCC(C(N)=O)CC1 ?
Mtb growth: -7%

Results for CCOc1ccccc1NC(=O)c1oc2ccccc2c1NC(=O)c1ccc(F)cc1 ?
Mtb growth: -4%

Results for CCOc1ccc2nc(NC(=O)NC3CC(=O)N(c4ccc5c(c4)OCCO5)C3)sc2c1 (stereo not drawn) ?
Mtb growth: -7%

Results for Cc1c(C)n2c(SCC(N)=O)nnc2[nH]c1=O ?
Mtb growth: -3%

How did c1cncc(-c2noc(-c3cc(C4CC4)[nH]n3)n2)c1 do in these assays?
Mtb growth: -5%

Results for COc1ccc2c(c1OC)C(=O)N(c1nc(SC)n[nH]1)C2=O ?
Mtb growth: 2%

Results for CCN(CC)CCN1C(=O)C(O)=C(C(=O)c2cc3ccccc3o2)C1c1ccncc1 (stereo not drawn) ?
Mtb growth: -9%

What do the screens show for `CC(NC(=O)NC1CC(=O)N(c2cccc(F)c2)C1)c1ccccc1` (stereo not drawn)?
Mtb growth: 8%

Results for COc1ccc(-c2nnc(NC(=O)c3ccccc3F)o2)cc1 ?
Mtb growth: 67µg/mL*

Results for CCOc1ccc(-c2nnc3c4cc(OC)ccc4n(Cc4ccccc4OC)cc2-3)cc1 ?
Mtb growth: 10%

Results for O=C(CSc1nccn(-c2cccc(F)c2)c1=O)c1ccccc1 ?
Mtb growth: -6%

Results for Cc1ccc(-n2nnc3c(=O)n(CC(=O)N4CCN(c5ccccc5)CC4)cnc32)cc1C ?
Mtb growth: 3%

Results for Cc1ccc(NC(=O)COc2cccc3c2CCNC3=O)cc1Cl ?
Mtb growth: -14%

How did COc1cc(/C=C/C(=O)O)cc(S(=O)(=O)NCCCO)c1OC do in these assays?
Mtb growth: 0%

Results for COc1ccc(C(=O)c2cn(Cc3cccc(F)c3)c3ccc(OC)cc3c2=O)cc1 ?
Mtb growth: -1%

Results for COC(=O)c1ccc2nc(C)cc(Nc3cccc(C(=O)O)c3)c2c1 ?
Mtb growth: -5%

Results for COc1ccccc1NC(=O)CSc1ccc2nnc(-c3ccccn3)n2n1 ?
Mtb growth: 7%

Results for CCOC(=O)c1ccc(NC(=O)Nc2c3ccccc3nc(=O)n2C(C)C)cc1 ?
Mtb growth: 73%

Results for O=C(CC(SCc1ccco1)c1cccc([N+](=O)[O-])c1)c1ccco1 (stereo not drawn) ?
Mtb growth: <0.2µg/mL*

Results for O=C(CSc1ncnc2ccccc12)N1CCCC1 ?
Mtb growth: 0%

Structural class, the compounds so far containing a halogen (16)
Results for CCCc1cc(=O)[nH]c2nnc(SCc3ccc(Cl)c(Cl)c3)n12 ?
Mtb growth: -9%

How did NC(=O)CSc1ccc2nnc(-c3cccc(F)c3)n2n1 do in these assays?
Mtb growth: 1%

What do the screens show for `CCOc1cccc2sc(N(CCCn3ccnc3)C(=O)Cc3ccc(F)cc3)nc12`?
Mtb growth: 4.8µg/mL*

Results for Cc1cc(NC(=O)c2cccc(C(F)(F)F)c2)nc2c1c(=O)oc1ccccc12 ?
Mtb growth: -5%

Results for Nn1c(SCC(=O)Nc2cccc(C(F)(F)F)c2)nnc(CCC(=O)O)c1=O ?
Mtb growth: -17%

Results for CC1Cc2nc(SCC(=O)Nc3ccc(OC(F)(F)F)cc3)n(C)c(=O)c2S1 (stereo not drawn) ?
Mtb growth: 12%

What do the screens show for `CCOC(=O)c1nn(-c2ccc(C(F)(F)F)cc2)c(=O)c2c(NC(=O)C3CCCC3)scc12`?
Mtb growth: -11%

How did Cn1c(=O)n(CCCO)c(=O)c2c1nc1n(-c3ccccc3F)c(-c3ccccc3)cn21 do in these assays?
Mtb growth: -2%

Results for COc1ccc(S(=O)(=O)c2cn(Cc3cccc(F)c3)c3ccc(F)cc3c2=O)cc1 ?
Mtb growth: 8%

Results for Cn1c(=O)[nH]c(=O)c2c1nc(SCc1c(F)cccc1Cl)n2Cc1ccccc1 ?
Mtb growth: 5%

Results for CCOc1ccccc1NC(=O)c1oc2ccccc2c1NC(=O)c1ccc(F)cc1 ?
Mtb growth: -4%

What do the screens show for `CC(NC(=O)NC1CC(=O)N(c2cccc(F)c2)C1)c1ccccc1` (stereo not drawn)?
Mtb growth: 8%

Results for COc1ccc(-c2nnc(NC(=O)c3ccccc3F)o2)cc1 ?
Mtb growth: 67µg/mL*

Results for O=C(CSc1nccn(-c2cccc(F)c2)c1=O)c1ccccc1 ?
Mtb growth: -6%

Results for Cc1ccc(NC(=O)COc2cccc3c2CCNC3=O)cc1Cl ?
Mtb growth: -14%

Results for COc1ccc(C(=O)c2cn(Cc3cccc(F)c3)c3ccc(OC)cc3c2=O)cc1 ?
Mtb growth: -1%
